Marburg entry inh: qHTS for inhibitors of binding or entry into cells for Marburg Virus; Marburg virus pseudotyped entry inhibition, cell reporter; control for the full effect not named in the record; about a third of the inactives were read at about 46 µM; Potency, µM (series often up to 37.8 µM), for the others: top-dose activity change, negative = inhibition, hits mostly inhibitors; 300,000 compounds, 1.8% hits; active = well fitted inhibition curve with a large enough effect; inconclusive = small, poorly fitted or top-dose-only effect, or effect the other way; inactive = flat fitted curve, though single readings scatter; tested in HEK293 cells; about a fifth of its hits are not listed in these tables; note: % is set by controls: 0 for no effect and ±100 for the full control effect; luciferase read-out
Cruzain inh Det: qHTS Assay for Promiscuous and Specific Inhibitors of Cruzain (with detergent) | Cruzipain (Trypanosoma cruzi), P25779 | purified cruzain, Z-FR-AMC fluorescence, 0.01% Triton | Potency, µM, for inactives: max response, negative = inhibition, most hits filed as inhibitors | 200,000 compounds, 0.43% hits | AID 1478, 2009; active = well fitted curve in the direction sought with a large enough effect; inconclusive = small, poorly fitted or top-dose-only effect, or another doubt; inactive = no such curve, though single readings can be large; an effect the other way counts as inactive or inconclusive;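 note: plate controls were neutral wells for no effect and buffer without enzyme for full effect; nearly all actives have a fitted effect of over 40% in size; top concentration of the series not given in the record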
Target sequence (P25779 123-467 limits assumed): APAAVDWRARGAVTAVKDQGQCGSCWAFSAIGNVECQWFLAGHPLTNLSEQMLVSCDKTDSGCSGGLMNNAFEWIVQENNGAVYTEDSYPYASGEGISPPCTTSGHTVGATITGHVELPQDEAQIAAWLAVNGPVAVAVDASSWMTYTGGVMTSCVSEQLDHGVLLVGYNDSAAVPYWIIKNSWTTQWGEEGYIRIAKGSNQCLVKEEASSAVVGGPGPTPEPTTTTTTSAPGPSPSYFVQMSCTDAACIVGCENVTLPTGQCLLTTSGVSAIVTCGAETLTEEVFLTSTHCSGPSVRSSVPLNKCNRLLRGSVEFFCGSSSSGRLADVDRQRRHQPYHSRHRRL
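Detergent-containing arm of a paired screen for aggregation-based inhibition: 0.01% Triton X-100 present. Cruzain at 1.5 nM cleaved 2 uM Z-FR-AMC at pH 5.5 with 5 mM DTT; AMC fluorescence gain over 60 s measured activity.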
2A StopGo: High Throughput Screening for Foot and Mouth Disease Virus Antivirals; human cells with a luciferase reporter of 2A StopGo recoding; control for the full effect not named in the record; Potency, µM (doses to about 57.9 µM), for inactives: top-dose signal change, negative = less light; 410,000 compounds, 1.2% hits; AID 1159524, 2015; active = well fitted falling curve with a large enough effect; inconclusive = small, poorly fitted or top-dose-only effect; inactive = no such curve, though single readings can be large or run the other way; tested in HEK293T cells; note: % is set by controls: 0 for no effect and ±100 for the full control effect; nearly all actives have a fitted effect of over 45% in size; luciferase light after 4 h
Cruzain inh noDet: qHTS Assay for Promiscuous and Specific Inhibitors of Cruzain (without detergent) | Cruzipain (Trypanosoma cruzi), P25779 | Potency, µM, inactives show max response, negative = inhibition, usual class: inhibitors | 200,000 compounds, 2.3% hits | AID 1476, 2009 | purified cruzain, Z-FR-AMC fluorescence, no detergent; active = well fitted curve in the direction sought with a large enough effect; inconclusive = small, poorly fitted or top-dose-only effect, or another doubt; inactive = no such curve, though single readings can be large; an effect the other way counts as inactive or inconclusive;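 note: plate controls were enzyme without inhibitor for no effect and buffer without enzyme for full effect; nearly all actives have a fitted effect of over 40% in size; top concentration of the series not given in the record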
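Purified cruzain at 1.5 nM, pre-incubated 15 min with compound at room temperature in 100 mM sodium acetate pH 5.5, 5 mM DTT, 0.00005% Triton X-100. Reaction started with 2 uM Z-FR-AMC; AMC fluorescence increase over 60 s gives rate.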
LASV entry inh: qHTS for Inhibitors of binding or entry into cells for Lassa Virus; Lassa virus pseudotype entry inhibition, cell reporter; control for the full effect not named in the record; Potency, µM (titrated, usually from 37.9 µM), for the others: at the top dose activity change, negative = inhibition, usual class: inhibitors; 300,000 compounds, 1.2% hits; active means well fitted inhibition curve with a large enough effect; inconclusive means small, poorly fitted or top-dose-only effect, or effect the other way; inactive means flat fitted curve, though single readings scatter; tested in HEK293 cells; note: % is set by controls: 0 for no effect and ±100 for the full control effect; nearly all actives have a fitted effect of over 50% in size; luciferase read-out
RE007 growth inh: qHTS Assay for Inhibitors of the HIV-1 protein Vpr; S. pombe RE007 Vpr strain, BacTiter-Glo ATP luminescence, 24 h; control for the full effect not named in the record; Potency, µM (top dose mostly 92.2 µM), for inactives: top-dose activity change, negative = less growth; 360,000 compounds, 0.21% hits; AID 651644, 2012; active = well fitted falling curve with a large enough effect; inconclusive = small, poorly fitted or top-dose-only effect; inactive = no such curve, though single readings can be large or run the other way;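 note: % is set by controls: 0 for no effect and ±100 for the full control effect; nearly all actives have a fitted effect of over 50% in size; the assay follows cell death caused by Vpr and the record does not say whether a fall means rescue or toxicity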
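Fission yeast RE007 carrying one integrated HIV-1 vpr copy, seeded at OD 0.01 in PMG+AL medium with 23 nL pinned compound. Grown 24 h at 30 degrees; viability read by BacTiter-Glo luminescence after 5 min.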
NS1 inh: qHTS Assay for Inhibitors of Influenza NS1 Protein Function | S. cerevisiae slowed by influenza A NS1, growth recovery by OD600 | Potency, µM (doses to about 46.1 µM), for inactives: at the top dose activity, positive = more growth | 270,000 compounds, 0.4% hits; note: actives are rising curves; nearly all actives have a fitted effect of over 50% in size
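Read-out: OD600 growth recovery of NS1-expressing budding yeast. Cells grown overnight at 30C in -URA glucose medium, washed, resuspended and diluted 1:100 in 2% galactose assay medium, pH 6.0. Same strain lacking NS1 served as positive control.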
SARS PLP yeast: qHTS of Yeast-based Assay for SARS-CoV PLP | 330,000 compounds, 0.19% hits | Potency, µM (highest dose often 32.9 µM), for the others: at the top dose activity, positive = growth rescue | S. cerevisiae expressing SARS-CoV PLpro, growth rescue; control for the full effect not named in the record | AID 485353, 2010; note: 0% is about no effect; nearly all actives have a fitted effect of over 55% in size; growth read by luminescence after 48 h
Numbers without * were called inactive; ? = inconclusive; · = no result given; [ ] = dose if it differs, or a comment. Unless noted, calls come from the whole dose curve; as a rule, active means well fitted rising curve with a large enough effect; inconclusive means small, poorly fitted or top-dose-only effect; inactive means no such curve, though single readings can be large or run the other way. Potency is the fitted concentration of half-maximal effect.

Compound	Marburg entry inh	LASV entry inh	RE007 growth inh	Cruzain inh noDet	SARS PLP yeast	Cruzain inh Det	NS1 inh	2A StopGo
O=C1CC(NS(=O)(=O)c2ccc([N+](=O)[O-])cc2)CN1c1ccc2c(c1)OCCO2 (stereo not given)	8%	?	4%	·	1%	·	·	-19%
CC(C)COc1ccc(C(=O)NCC2(N3CCN(C)CC3)CCCCC2)cc1	-2%[46.1 µM]	-9%[46.1 µM]	·	-3%	·	-3.2%	·	-12%
CCOc1ccc(NC(=O)c2ccc(C#CC(C)(C)O)cc2)cc1	14%	6%	-3%	?	-3%	0.5%	30%	-17%
N#Cc1c(Nc2ccccc2)c(C=NCCN2CCOCC2)c[nH]c1=O	-7%	7%	4%	-6%	-3%	-0.7%	1%	-19%
CCOC(=O)NC(=S)Nc1c(C)n(C)n(-c2ccccc2)c1=O	-7%[14.2 µM]	-3%	8%	·	1%	·	-1%	-4%
O=C(NCc1cc(Br)cc(Br)c1OC(=O)c1ccccc1[N+](=O)[O-])c1ccccc1	?	?	-11%	?	-67%	-3.1%	?	-17%
COC(=O)c1[nH]c2c(c1C(=O)OC)CCc1ccccc1-2	-2%	-16%	1%	·	-3%	·	-6%	7%
COc1cc(C(=O)NCc2cc3cc(Cl)ccc3n2C)cc(OC)c1OC	·	·	3%	·	3%	·	19%	-7%
CCOC(=O)c1sc(=NC(=O)c2ccco2)n(C)c1C	?	9%	12%	·	0%	·	·	0%
COc1ccc(C(CNC(=O)c2cccc(S(=O)(=O)Nc3ccc(F)cc3)c2)N(C)C)cc1 (stereo not given)	?	-16%	-6%	·	1%	·	·	26%
CC(=O)N1CCc2cc(Br)cc(S(=O)(=O)NCCc3ccc(Cl)cc3)c21	-6%[46.1 µM]	0%[46.1 µM]	·	5%	·	-3.7%	·	12%
COC(=O)C1=C(C)NC(C)=C(C(=O)OC)C1c1cn(-c2ccccc2)nc1-c1ccco1	?	-24%	-9%	?	12%	-17%	-14%	-3%
Cc1cc(C)n2[nH]c(=O)c(N=Nc3ccccc3)c2n1	-9%	5%	-5%	-11%	2%	-15%	-19%	-3%
COc1ccc(CN(C)C(=O)C23CC4CC(CC(Cl)(C4)C2)C3)c(OC)c1OC	-28%[46.1 µM]	-12%	12%	·	-8%	·	-14%	?
COc1ccc(S(=O)(=O)NCCSc2ccc(C)cc2)cc1OC	8%	-20%	12%	2%	1%	-5.8%	-20%	-18%
O=C1CCCN1c1ccc(S(=O)(=O)N2CCCCC2)cc1[N+](=O)[O-]	-5%[46.1 µM]	-2%	2%	·	0%	·	0%	11%
O=C(CSc1nc(=O)n(CCCN2CCOCC2)c2c1CCC2)Nc1ccc(F)cc1	-29%	15%	-5%	·	-1%	·	·	-2%
Cc1c(C(=O)N2CCC(c3nc4ccccc4s3)CC2)oc2ccc(Cl)cc12	7%[46.1 µM]	-2%[46.1 µM]	·	-7%	·	-6.8%	·	-16%
Cc1cc(NC(=O)c2ccc3c(c2)C(=O)N(Cc2ccccc2)C3=O)no1	?	5%	5%	·	2%	·	·	-4%
Cc1cccc(OC(=O)c2cc(-c3ccc(C)c(C)c3)on2)c1	-1%[46.1 µM]	8%[46.1 µM]	·	-1%	·	-5.0%	·	-13%
COc1ccc(NC(=O)CN(C)C(=O)/C=C/c2cn(-c3ccccc3)nc2-c2cccs2)cc1	-21%	-24%	-1%	·	-4%	·	·	1%
Cc1nc(NS(=O)(=O)c2ccc(Br)cc2)c2c3c(sc2n1)CCC3	-13%	-10%	-13%	?	18%	-6.9%	6%	-9%
CCOc1ccc2nc(NC3=NC(C)(C)C=C(C)N3)nc(C)c2c1	?	-7%	-16%	16µM*	8%	28µM*	-1%	?
Nc1ccc(-n2nc3ccccc3n2)cc1	?	?	-15%	·	·	·	·	15%
COc1ccc(-n2nc3c(N4CCCC(C(=O)NCCc5ccc(C)cc5)C4)nnc(C)c3c2C)cc1 (stereo not given)	·	-12%[46.1 µM]	·	1%	·	-2.8%	·	-4%
CCOC(=O)c1c(NC(=O)c2ccn(CC)n2)sc2c1CCC2	5%[46.1 µM]	-9%	-5%	·	-3%	·	5%	-17%
COc1cccc(C(C2C(=O)CC(C)(C)CC2=O)C2C(=O)CC(C)(C)CC2=O)c1	·	·	-9%	·	0%	·	-5%	-11%
C[C@@H]1CC=C[C@H]2[C@H]1C(=O)N(Cc1ccccc1)[C@H]2c1ccc(-c2ccoc2)cc1F	·	·	8%	·	-14%	·	-45%	?
C=CCCCCCCCCC(=O)N1CCN(c2cc3c(cc2F)c(=O)c(C(=O)O)cn3CC)CC1	·	·	9%	·	1%	·	-2%	?
O=C(N/N=C/C(Br)=C/c1ccccc1)c1ccc([N+](=O)[O-])cc1	·	·	38%	·	-2%	·	-6%	9%
O=C(COC(=O)C1CCC1)Nc1ccc(OC(F)F)cc1	9%	-7%	-14%	-8%	-1%	2.1%	-3%	10%
CCN(c1ccccc1)S(=O)(=O)c1ccc(F)c(C(=O)O)c1	2%	-8%	-12%	2%	-4%	3.8%	11%	-13%
COc1ccc(CCNC(=O)c2ccc(Cn3c(=O)c4ccccc4n(Cc4cc(C)ccc4C)c3=O)cc2)cc1OC	5%[46.1 µM]	4%[46.1 µM]	·	-7%	·	-1.8%	·	0%
CN(C)c1nc(N(C)C)n(C(=O)c2cccs2)n1	-2%[46.1 µM]	17%	4%	·	1%	·	·	-8%
CCCOC1CCCN(C(=O)CCc2nnc(Cc3cccc(C)c3)o2)C1 (stereo not given)	?	7%[46.1 µM]	12%	·	0%	·	2%	42%[activator]
COc1ccc(OC)c(-n2c(O)c(/C=C3\C(C)=Nc4ccccc43)c(=O)[nH]c2=O)c1	3%[46.1 µM]	10%	-9%	·	0%	·	5%	?
CCC(C)C(NC(=O)c1ccccc1NC(=O)c1ccc(OC)cc1)C(=O)NCc1ccco1 (stereo not given)	-19%	0%	-10%	29%	2%	-7.9%	12%	·
CCCCCn1c(=O)[nH]c2cc(C(=O)N3CCN(c4ccc(F)cc4)CC3)ccc2c1=O	-16%[46.1 µM]	-1%[46.1 µM]	9%	·	·	·	·	?
COc1ccc(C(=O)N(Cc2ccccc2)c2cccc(C)c2)cc1S(=O)(=O)N1CCOCC1	?	?	0%	·	1%	·	·	54%[activator]
O=[N+]([O-])c1cccc(-c2nc(-c3ccccc3)no2)c1	5%[46.1 µM]	29%	-25%	·	1%	·	-2%	37%[activator]
COc1ccc(C2CC(=O)c3c(C)nc(N4CCN(Cc5ccccc5)CC4)nc3C2)cc1OC (stereo not given)	18µM*	8.2µM*	3%	19%	-3%	-9.1%	-1%	11µM*
COc1cccc(NC(=O)CN(C)C(=O)CCc2nc3sc4c(c3c(=O)[nH]2)CCCC4)c1	-2%	-7%	-7%	·	19%	·	18%	-16%
COCCCNCCCOc1ccc(C)cc1Br	?	?	-4%	-17%	-1%	-1.2%	-3%	-8%
CCOc1ccc(Sc2cc(C(=O)NCCCOC)c3ccccc3n2)cc1	·	-24%[46.1 µM]	·	?	·	-0.3%	·	?
O=C1Nc2cc3c(cc2C1=O)sc1ccccc13	?	?	-6%	·	-3%	·	-3%	-1%
COc1ccc(N/C=C(\C#N)c2nc3ccccc3n2C)c(OC)c1	-6%	7%	-23%	-24%	-6%	-3.9%	-6%	-9%
O=C(NC1CCCCCC1)c1cccnc1Sc1ccccc1	?	-7%	·	2%	14%	-1.5%	-8%	15%
Cc1cc(NC(=O)C2CC(=O)N(c3ccccc3C)C2)no1 (stereo not given)	-6%[46.1 µM]	·	1%	·	0%	·	11%	3%
Nc1ncnc2c1nc(Br)n2C1O[C@H]2COP(=O)(O)O[C@@H]2C1O (stereo not given in full)	3.2µM*	·	·	5%	·	-3.4%	4%	·
CC12CN3CC(C)(CN(C1)C3c1ccc([N+](=O)[O-])o1)C2 (stereo not given)	?	?	?	·	-5%	·	-148%	-5%
NC(=O)C1CCN(CC(=O)NCc2ccccc2)CC1	23%[46.1 µM]	-15%	12%	1%	2%	-0.4%	10%	3%
CN(Cc1ccccc1)C(=O)c1ccc(Cl)c([N+](=O)[O-])c1	10%	5%	-12%	-5%	?	-0.6%	-11%	2%
CCN1C(=O)C(Cc2nc3ccccc3c(=O)n2C)c2cc(C)ccc21 (stereo not given)	·	6%[46.1 µM]	·	-2%	·	-2.4%	·	-17%
Cc1sc2nc(SCC(=O)N3CCOCC3)[nH]c(=O)c2c1-c1ccccc1	?	-7%	10%	·	-6%	·	-2%	?
CCn1c(CCNC(=O)c2ccc(OC)cc2)nnc1SCc1ccc(Cl)c(Cl)c1	?	?	25%	?	15%	-2.5%	-11%	?
CCn1nc(C)c(/C=C2\CCCC3=C2OC(N)=C(C#N)C3c2c(C)nn(CC)c2C)c1C (stereo not given)	·	·	·	?	1%	-2.4%	5%	·
NC(=O)c1nsc(C(=O)N(CC(=O)NC2CCCCC2)c2ccc(Cl)cc2)c1N	-5%[46.1 µM]	·	31%	·	4%	·	7%	-16%
O=C1CN(C(=O)CNCc2ccccc2Cl)c2ccccc2N1	3%[46.1 µM]	13%	4%	·	-1%	·	1%	36%[activator]
CCc1nnc2c(NCc3ccc(F)cc3)nc3ccccc3n12	-8%[46.1 µM]	23%[46.1 µM]	·	6%	·	3.2%	·	10%
CCc1ccc(CNC(=O)C2CCN(S(=O)(=O)N3CCC(C)CC3)CC2)cc1	·	·	-20%	·	0%	·	-3%	?
Cc1cccc(-[n+]2c(C)cc(C)c3c(=O)[nH]c(=O)[nH]c32)c1	-1%	9%	31%	-3%	-10%	-28%	3%	-8%
Cc1cc(C)n2nc(SCC(=O)N/N=C/c3ccc(F)cc3)nc2n1	5%	?	2%	1%	0%	0.2%	-5%	12%
